# GLA inh pH 4.5 – qHTS Assay for Inhibitors of Human alpha-Galactosidase at pH 4.5 | activity change, negative = inhibition, % at 105 µM | Alpha-galactosidase A (Homo sapiens), P06280 | 230,000 tested, under 10 active | purified enzyme, 4-MU-alpha-Gal fluorescence, pH 4.5; inconclusive = small, poorly fitted or top-dose-only inhibition, or a rising curve; inactive = flat fitted curve, though single readings scatter; no compound was filed as active;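 further: 0% = full activity with enzyme and -100% = basal without enzyme; dose as in the result columns while the protocol names 77 µM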
# Target sequence (P06280 whole entry, looked up): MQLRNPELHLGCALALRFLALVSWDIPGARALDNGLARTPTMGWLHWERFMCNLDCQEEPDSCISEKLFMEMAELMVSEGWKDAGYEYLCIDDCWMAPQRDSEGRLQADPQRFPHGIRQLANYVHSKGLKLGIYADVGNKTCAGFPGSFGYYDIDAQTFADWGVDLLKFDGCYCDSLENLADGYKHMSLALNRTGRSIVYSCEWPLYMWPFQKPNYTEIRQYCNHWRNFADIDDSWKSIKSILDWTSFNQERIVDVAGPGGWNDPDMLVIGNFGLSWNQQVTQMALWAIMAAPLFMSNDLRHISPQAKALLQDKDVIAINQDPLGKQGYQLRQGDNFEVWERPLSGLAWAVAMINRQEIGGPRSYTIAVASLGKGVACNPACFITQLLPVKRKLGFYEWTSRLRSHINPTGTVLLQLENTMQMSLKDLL
# Rango complex inh – qHTS Assay for Inhibitors of Rango (Ran-regulated importin-beta cargo) - Importin beta complex formation | Importin subunit beta-1 (Homo sapiens), Q14974 | 0.031% of 340,000 active | Potency, µM (titrated, usually from 92.2 µM), without a hit: at the top dose inhibition of complex formation | Rango CFP/YFP FRET sensor + importin beta, 45 min; active = rising FRET ratio curve, often small or poorly fitted; inconclusive = mostly compound fluorescence or quenching in the first reads; inactive = flat curves in all reads;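 further: potency means the concentration at half of the fitted maximal effect; 0% = DMSO wells and 100% = buffer wells lacking importin beta; nearly all actives have a fitted effect of over 15% in size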
#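 Inhibition scored from the CFP 486 nm/YFP 530 nm FRET ratio 45 min after adding 0.125 microM importin beta to 50 nM Rango biosensor preincubated 5 min with compound (room temperature, PBS with DTT, Tween-20, BSA). No-importin wells as positive control.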
# Rango release inh – qHTS Assay for Inhibitors of RanGTP induced Rango (Ran-regulated importin-beta cargo) - Importin beta complex dissociation; Snurportin-1 (Homo sapiens) + GTP-binding nuclear protein Ran (Homo sapiens) + Importin …; Biochemical FRET Rango-importin beta, RanGTP-induced dissociation; 0.071% of 340,000 active; Potency, µM (highest dose often 46.1 µM), for the others: top-dose activity change, negative = inhibition; active means falling FRET ratio curve, often poorly fitted, with flat reads before Ran was added; inconclusive means other falling curves, or compound fluorescence or quenching; inactive means flat or rising ratio curve;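 further: potency means the concentration at half of the fitted maximal effect; % of control where 0% means no effect; nearly all actives have a fitted effect of over 45% in size; -100% = wells without RanGTP and RCC1; the record marks most hits as doubtful in a second field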
#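 Recombinant Rango FRET biosensor (EYFP–snurportin 1 IBB–cerulean CFP10) at 0.1 uM premixed with 0.25 uM importin beta in PBS, 1 mM DTT, 0.02% Tween-20, 0.1% BSA. Compound added 5 min; RanGTP-RCC1 (0.6 uM Ran, 2 mM GTP, 0.2 uM RCC1) then triggers release, read at 45 min.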
# miR-21 reporter – qHTS Assay for Modulators of miRNAs and/orActivators of miR-21; HeLa miR-21 FLuc reporter, luciferase, 48 h; Potency, µM (highest dose often 38.3 µM), for the others: top-dose reporter change, positive = more light; 340,000 tested, under 10 active; AID 2288, 2010; active = well fitted rising curve with a large enough effect; inconclusive = small, poorly fitted or top-dose-only effect; inactive = no such curve, though single readings can be large or run the other way;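 further: % of control where 0% means no effect; miR-21 action dims this reporter so a rising signal means less miR-21 action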
#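 Using DMEM plus 10% FBS, HeLa miR-21-FLuc cells are incubated with test compounds (final up to about 40uM) for 48 hours; firefly luciferase signal is then imaged following reagent-mediated lysis.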
# * marks the source's active call; other numbers are inactive results; ? = inconclusive; . = no result given; & = joins results of further samples; [ ] = another dose, or the depositor's remark. Only part of the results is shown. The share of hits here may be higher or lower than overall.
SMILES,GLA inh pH 4.5,Rango complex inh,Rango release inh,miR-21 reporter
Cc1ncc(CO)c2c1OC(C)(C)OC2,8,1.2%,14%,-3%
CCOC(=O)CSc1ncc(-c2ccc([N+](=O)[O-])cc2)[nH]1,-3,?,-9%,-2%
O=C(CCl)N(C/C=C/c1ccccc1)c1ccc2c(c1)OCCO2,-6[21.1 µM],0.1%,0%,17%
COc1ccc(CCNC(=O)COC(=O)c2cc(OC)c(OC)cc2OC)cc1,0,3.2%,1%,-7%
Cc1ccccc1NC(=O)Nc1ccccc1Br,3,?,-16%,-14%
COc1ccc(N2CCN(Cc3cc4c(cc3O)CCC4)CC2)cc1,-10,-6.6%,-15%,2%
CCn1cc(CN2CCC(n3nccc3NC(=O)c3ccccc3OC)CC2)cn1,.,0.3%,-24%,2%
COc1cccc(CC2(CO)CCCN(Cc3[nH]c4ccc(C)cc4c3C)C2)c1 (configuration not stated),6,?,41%,9%
CN(CC(=O)Nc1ccccc1Cl)C(=O)COC(=O)CSc1ccc(Cl)cc1,.,6.7%,6%,.
CC(C)(C)c1cc(NC(=O)c2ccco2)no1,.,-5.1%,0%,-27%
CC(C)CCn1c(=S)[nH]c2ncccc2c1=O,4,-2.7%,-3%,0%
CSc1ccc(CCNC(=O)c2ccc(CS(=O)Cc3ccccc3Cl)o2)cc1 (configuration not stated),.,2.6%,8%,17%
Cc1ccc(-c2[nH]c3cc(C(N)=O)ccc3c(=O)c2O)cc1,1,?,-16%,?
O=S(=O)(c1ccccc1)N1CCC(O)(CN2CCN(c3ccccc3)CC2)CC1,.,-4.3%,6%,-1%
O=C(CN1CCN(c2cnn(-c3ccccc3)c(=O)c2Cl)CC1)NC1CCS(=O)(=O)C1 (configuration not stated),.,0.8%,4%,.
Cc1cc(C(=O)N2CCCC(C(=O)c3ccc4ccccc4c3)C2)nn1C (configuration not stated),-11,-0.4%,7%,-1%
CC(C)NC(=O)C1CCCN(S(C)(=O)=O)C1 (configuration not stated),-5,-0.6%,17%,1%
C=CCn1c(SCC(=O)Nc2ccc3c(c2)OCO3)nnc1-c1cc(Br)ccc1O,7,-0.7%,-6%,14%
Cc1ccc(NC(=O)c2ccc([N+](=O)[O-])o2)c(C)c1,5,2.1%,41%,11%
O=C(Cn1nnc(-c2cccc(C(F)(F)F)c2)n1)NNS(=O)(=O)c1cccc(C(F)(F)F)c1,-4,-11%,8%,-2%
Cc1ccccc1NC(=O)c1ccc(S(=O)(=O)N(C)C)cc1,0,0.7%,-1%,-8%
Cc1ccc(S(=O)(=O)c2nc(-c3cccs3)oc2NCc2cccnc2)cc1,.,1.0%,-5%,9%
Cc1cc(C)cc(NC(=O)c2ccccc2NC(=O)CCC(=O)O)c1,-2,-3.6%,0%,-1%
O=C(c1ccc(F)cc1)C1CCN(C(=S)Nc2ccccc2)CC1,-14,-1.4%,10%,3%
Cc1c(C(=O)N2CCN(c3ccc(F)cc3)CC2)sc2nc(-c3ccccc3)cn12,-3,5.4%,7%,-4%
O=C(Cc1cccc(NC(=O)C2CCCN(C(=O)C3CCC3)C2)c1)Nc1cccc(C(=O)N2CCCCC2)c1 (configuration not stated),.,-2.8%,47%,.
CCCCNC(=O)O[C@H]1C[C@@H]2CCN3C(=O)CCC[C@H]([C@H]1CC)[C@H]23,.,?,-14%,1%
COc1ccc(C(=O)NCC(=O)N/N=C/c2c(C)[nH]c3ccccc23)cc1,.,-1.5%,-10%,0%
COCCn1c(SCC(=O)Nc2cccc(OC)c2)nnc1-c1ccc(Cl)cc1,-1,6.2%,12%,0%
Cc1sc2ncnc(Sc3ccccc3C(=O)Nc3ccccc3Cl)c2c1C,-6,-2.0%,9%,-9%
Cc1onc(-c2c(Cl)cccc2Cl)c1C(=O)Nc1ccc(Cl)cn1,-24,2.9%,7%,28%
Cn1nnnc1SC1CC(=O)N(c2ccccc2)C1=O (configuration not stated),6,-0.3%,-6%,3%
c1ccc2c(c1)nc1n2CCN1CCNC1CCCCC1,-1,-0.2%,0%,-5%
Cc1cc(C(F)(F)F)nn1CC(=O)NCc1ccco1,-7,-1.5%,-11%,2%
Cc1ccc(S(=O)(=O)N2CCN(c3ccccc3)CC2)cc1C(N)=O,0,0.6%,-10%,-5%
C=CCn1c(SCC(=O)NC2CCCC2)nc2sc(C)cc2c1=O,.,?,6%,.
CCOc1ccc(Cl)cc1/C=C1/C(=O)ON=C1C,.,3.5%,23%,-1%
Cn1c2ccccc2c2nnc(SCC(=O)NCc3ccoc3)nc21,8,-0.5%,-5%,-11%
CCOc1ccccc1NC(=O)CC1NCCNC1=O (configuration not stated),4,-1.9%,1%,1%
O=C(Cn1cnc2ccccc2c1=O)N1CCN(Cc2ccccc2)CC1,2,-1.0%,-8%,-3%
C=CCc1ccc(O)c(-c2cc(CC=C)ccc2O)c1,-16&-5,0.2%,20%,0%
COc1cc(CNCCc2c[nH]c3ccccc23)ccc1OCc1ccccc1F,-2,4.7%,8%,-4%
Cc1cc(OCC(=O)NCCO)cc(C)c1Cl,1,6.3%,-8%,-7%
CCOc1cc(CNCCSc2nnnn2C)cc(Br)c1OCc1ccc(F)cc1,-22,0.2%,17%,2%
O=C(NC(=O)c1cc([N+](=O)[O-])ccc1Cl)C1=C(N2CCCC2)COC1=O,.,-2.4%,-15%,.
Cn1c(=O)[nH]c(=O)c2c1nc(N/N=C/c1ccncc1)n2Cc1ccc(F)cc1,-1,-1.7%,-1%,5%
CCOC(=O)CCSc1nc(C)c2cc(OC)ccc2n1,?,2.1%,0%,-74%
O=C(NCc1ccc(F)cc1)C1CCN(S(=O)(=O)c2ccc(Cl)cc2)CC1,.,-3.5%,-3%,7%

# A second format for part of the listing above.
molecule	GLA inh pH 4.5	Rango complex inh	Rango release inh	miR-21 reporter
Cc1ncc(CO)c2c1OC(C)(C)OC2	8	1.2%	14%	-3%
CCOC(=O)CSc1ncc(-c2ccc([N+](=O)[O-])cc2)[nH]1	-3	?	-9%	-2%
O=C(CCl)N(C/C=C/c1ccccc1)c1ccc2c(c1)OCCO2	-6[21.1 µM]	0.1%	0%	17%
COc1ccc(CCNC(=O)COC(=O)c2cc(OC)c(OC)cc2OC)cc1	0	3.2%	1%	-7%
Cc1ccccc1NC(=O)Nc1ccccc1Br	3	?	-16%	-14%
COc1ccc(N2CCN(Cc3cc4c(cc3O)CCC4)CC2)cc1	-10	-6.6%	-15%	2%
CCn1cc(CN2CCC(n3nccc3NC(=O)c3ccccc3OC)CC2)cn1	.	0.3%	-24%	2%
COc1cccc(CC2(CO)CCCN(Cc3[nH]c4ccc(C)cc4c3C)C2)c1 (configuration not stated)	6	?	41%	9%
CN(CC(=O)Nc1ccccc1Cl)C(=O)COC(=O)CSc1ccc(Cl)cc1	.	6.7%	6%	.
CC(C)(C)c1cc(NC(=O)c2ccco2)no1	.	-5.1%	0%	-27%
CC(C)CCn1c(=S)[nH]c2ncccc2c1=O	4	-2.7%	-3%	0%
CSc1ccc(CCNC(=O)c2ccc(CS(=O)Cc3ccccc3Cl)o2)cc1 (configuration not stated)	.	2.6%	8%	17%
Cc1ccc(-c2[nH]c3cc(C(N)=O)ccc3c(=O)c2O)cc1	1	?	-16%	?
O=S(=O)(c1ccccc1)N1CCC(O)(CN2CCN(c3ccccc3)CC2)CC1	.	-4.3%	6%	-1%
O=C(CN1CCN(c2cnn(-c3ccccc3)c(=O)c2Cl)CC1)NC1CCS(=O)(=O)C1 (configuration not stated)	.	0.8%	4%	.

# New compounds follow:
SMILES,GLA inh pH 4.5,Rango complex inh,Rango release inh,miR-21 reporter
COC(=O)N1CC(c2ccccc2)CC1=O (configuration not stated),8,-0.1%,-6%,-7%
Cc1cccn2c(=O)c(C=NCc3ccco3)c(Nc3ccc(SC(F)F)cc3)nc12,4,-8.5%,-19%,-6%
CCN1CCc2c(C#N)c(NCc3ccccc3)nc(NCCO)c2C1,4,?,?,-1%
c1ccc(-c2sc3ccccc3c2-c2ccc(OCCN3CCCCC3)cc2)cc1,.,2.5%,-6%,.
O=C(CN1CCN(c2ccc(F)cc2)CC1)Nc1cccc(C(F)(F)F)c1,-5,3.8%,-10%,0%
Cc1cccc(N2CCN(C(=O)CCS(=O)(=O)c3ccc4c(c3)NC(=O)CO4)CC2)c1C,.,-3.5%,-20%,27%
Nc1nc(SCC(=O)c2ccc(Oc3ccccc3)cc2)n[nH]1,-1,8.1%,?,-30%
O=S(=O)(c1ccc(Cl)cc1)N1CCN=C1SCc1cccnc1,-4,-0.7%,-5%,-2%
O=C(CSC1=NCCN1)Nc1cccc([N+](=O)[O-])c1,-3,0.8%,-12%,19%
CCSc1nnc(NC(=O)C2CCN(C(=O)c3ccc(F)cc3)CC2)s1,.,-3.4%,16%,.
COc1cccc(CNC(=O)Cc2ccc(Br)cc2)c1,5,0.1%,1%,-25%
COCCNC(=O)c1cccc(OC2CCN(Cc3ccccc3C)CC2)c1,.,-1.4%,10%,12%

# Some of these compounds in order of their number in GLA inh pH 4.5, highest first.
SMILES,GLA inh pH 4.5,Rango complex inh,Rango release inh,miR-21 reporter
Cc1ncc(CO)c2c1OC(C)(C)OC2,8,1.2%,14%,-3%
C=CCn1c(SCC(=O)Nc2ccc3c(c2)OCO3)nnc1-c1cc(Br)ccc1O,7,-0.7%,-6%,14%
Cc1cc(C)cc(NC(=O)c2ccccc2NC(=O)CCC(=O)O)c1,-2,-3.6%,0%,-1%

# Carrying on.
SMILES,GLA inh pH 4.5,Rango complex inh,Rango release inh,miR-21 reporter
O=C(c1cnccn1)N(c1ccccc1)C1(C(=O)NC2CCCC2)CCCCC1,-1,-0.1%,-6%,-8%
CCOc1cc2[nH]c(=O)n(CC3CCC(C(=O)NCCCOC)CC3)c(=O)c2cc1OCC (configuration not stated),2,-0.9%,?,-3%
CC1CC(C)CN(S(=O)(=O)c2ccc(NC(=O)c3ccc(=O)[nH]c3)cc2)C1 (configuration not stated),.,?,-9%,.
Cc1nn(C)c(C)c1S(=O)(=O)N(CC(=O)Nc1nccs1)c1ccc(C(C)C)cc1,5,4.2%,13%,1%
COc1ccc2oc3cc(C)[n+]([O-])c(-c4ccc(Cl)cc4)c3c2c1,9,-5.6%,3%,-1%
Cc1cccc(-n2[nH]c3c4c(ccc3c2=O)C(=O)c2ccccc2C4=O)c1,2,2.9%,16%,-1%
Cc1ccc(C2=CC(c3ccc(N(C)C)cc3)n3nnnc3N2)cc1 (configuration not stated),3,?,?,-7%
COc1cc(NC(=O)c2cccs2)c(OC)cc1NC(=O)Nc1ccc(F)cc1,.,0.2%,-4%,12%
COc1ccc(OCC(=O)NNC(=O)C(=O)Nc2ccccc2)cc1,.,-2.8%,1%,.
CN(C)c1cccc(C(=O)NCC(c2ccco2)N(C)C)c1 (configuration not stated),.,-3.2%,0%,-42%
CCc1nc(SCCO)c2oc3ccccc3c2n1,0,0.5%,16%,-25%
Cc1cc(S(=O)(=O)N2CCCCC2)c(C)s1,.,0.1%,-19%,0%
